# Compound activity: PubChem, several laboratories
# MT1-MMP act inh – blockers of MT1-MMP proenzyme processing, primary screen, HT1080 RFP-PRO-GFP cells, GFP/RFP fluorescence; Matrix metalloproteinase-14 (Homo sapiens), P50281; GFP/RFP ratio fluorescence, overnight; percent of plate control window, DMSO zero; GFP/RFP ratio change, % at 20 µM; 0.061% of 360,000 active; AID 651647, 2012;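 active = GFP/RFP ratio change of at least 30% with cell ATP level not reduced by more than half and red fluorescence within 50% of control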; also: strong numbers were not always called active
#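 Read-out: GFP/RFP fluorescence ratio; Test system: RFP-PRO-GFP reporter HT1080 cells; Compound dosing: single-point 20 µM compound, 1% DMSO; Times: overnight compound exposure at 37 °C.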
# Yeast UUG start – modulators of yeast start codon fidelity, primary screen, whole organism, S. cerevisiae, single point, plate reader | S. cerevisiae UUG-firefly luciferase reporter, luminescence/redox ratio | activity score, % at 18.7 µM | 0.13% of 350,000 active;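 active = replicate mean at a twofold rise or more, about +100% in these data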;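 also: firefly luciferase made from a UUG start codon reports start codon fidelity; reporter light over untreated wells divided by growth signal over untreated wells; some hits fall short of that in this replicate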
# MT1-MMP act inh RFP – further read-out of MT1-MMP act inh, marked with its call; RFP signal change, %; measured here: RFP expression control read;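 0 = vehicle wells; hits needed this value within 50% of zero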
# * marks the source's active call; other numbers are inactive results; & = joins results of further samples.
# Every second line gives: MT1-MMP act inh, MT1-MMP act inh RFP, Yeast UUG start
- COc1ccc2[nH]c3c(c2c1)CCN1C(=O)C(CC(=O)NCc2ccco2)C[C@H](C(=O)N(C(C)C)C(C)C)[C@@]31C (stereo not given in full)
→ 3, 0, -8
- COc1ccc(N2CCN(C(=O)[C@@H]3CCCN3C3=NS(=O)(=O)c4ccccc43)CC2)cc1
→ 0, 1, 9
- CC[C@]12c3[nH]c4cc(-c5ccco5)ccc4c3CCN1C(=O)[C@@H](CC(=O)NCCN1CCOCC1)C[C@@H]2C(=O)N1CCN(C(=O)C2CC2)CC1
→ -2, 5, 12
- Cc1cn([C@H]2C[C@H](O)[C@@H](CNCc3cc(Cl)ccc3OCc3ccc(Cl)cc3)O2)c(=O)[nH]c1=O
→ 3, -3, -1
- CCC(=O)c1ccc(OCC(=O)OC(C)C(=O)Nc2c(C)n(C)n(-c3ccccc3)c2=O)cc1 (stereo not given)
→ 1, 0, -2
- Cc1cnc(C(=O)N2CCN(S(=O)(=O)c3cc(C(F)(F)F)cc(C(F)(F)F)c3)CC2)cn1
→ -3, 0, -11
- COC1OC(CO)C(N(C)C(C)=O)C1O (stereo not given)
→ -2, 1, -5
- CCCNC(=O)c1cc(C2CCCCN2S(C)(=O)=O)on1 (stereo not given)
→ 0, 1, -15
- COc1ccc(NC(=O)c2cccc(S(=O)(=O)N3CCN(c4ccccc4)CC3)c2)c(OC)c1
→ 2, -14, -14
- O=C(c1cn(Cc2ccccc2)nc1-c1cccnc1)N1CCN(Cc2ccccc2)CC1
→ 0, 1, -12
- CC(C)C[C@@H](CNCC(=O)[C@H](CC(C)C)NC(=O)c1[nH]cnc1C(=O)N[C@@H](C)CN)NC(=O)c1nc[nH]c1C(=O)N[C@@H](CC(C)C)C(=O)O
→ -1, -1, 7
- C=C(C)CNc1cc(S(=O)(=O)N2CCOCC2)ccc1Oc1ccccc1
→ -3, -8, 9
- CCOc1ccccc1C(=O)OC(C)C(=O)Nc1ccc(S(=O)(=O)N2CCCC2)cc1 (stereo not given)
→ 0, -1, -4
- NS(=O)(=O)c1ccc(CCNC(=O)COC(=O)CCN2C(=O)C3CC=CCC3C2=O)cc1 (stereo not given)
→ 10, 0, -9
- COc1ccc2c(c1)[C@H]1[C@H](CO2)[C@H](c2ccccc2)[C@@]2(C)C(=O)N[C@H](C)C(=O)N12
→ 1, 1, -16
- CCOC1=C2CN(S(=O)(=O)c3ccc(Cl)cc3)[C@H](c3ccccc3)C[C@@H]2N(S(=O)(=O)c2ccc(C)cc2)[C@H](c2ccccc2)C1
→ -1, -29, 1
- CCOC(=O)C1=CCN(S(=O)(=O)c2ccc(C)cc2)C1c1cccc(F)c1 (stereo not given)
→ 7, -3, -4
- COc1cccc(NC(=O)CN(C)C(=O)c2cc(CN3C(=O)c4ccccc4C3=O)ccc2OC)c1
→ -1, 5, 97
- CCCS(=O)(=O)NC(=O)C1(C)CCN(C(=O)c2ccc(OC)c(F)c2)C1 (stereo not given)
→ 2, 6, -19
- CCOC(=O)c1c[nH]c2ccc([N+](=O)[O-])cc12
→ -5, 3, -9
- CCCCn1c(N)c(N(CCOC)C(=O)c2cc(S(=O)(=O)N3CCOCC3)ccc2Cl)c(=O)[nH]c1=O
→ -4, 1, -15
- CC(C)CN(C(=O)Cn1c(C(F)(F)F)nc2ccccc21)c1c(N)n(Cc2ccccc2)c(=O)[nH]c1=O
→ -2, -1, -10
- COc1ccccc1OCC(=O)NNC(=O)C1CCN(c2ncnc3sc(C)c(C)c23)CC1
→ -1, -4, -6
- COc1ccc(NC(=O)CSc2nnc(C)n2N)cc1S(=O)(=O)N1CCCCC1
→ -1, 2, -3
- O=C(COC(=O)c1ccccc1O)Nc1cccc2ccccc12
→ 6, -2, -3
- Cn1nc(C(=O)Nc2ccc3c(c2)OCCO3)c2ccccc2c1=O
→ 1, 3, -22
- COc1ccc(S(=O)(=O)N2CCc3ccccc32)cc1C(=O)NC1(C)CCS(=O)(=O)C1 (stereo not given)
→ -2, -3, 2
- CCOC(=O)Nc1ccc2c(CN3CCN(S(=O)(=O)c4ccc(C(C)C)cc4)CC3)cc(=O)oc2c1
→ -2, -1, -10
- COc1cc(NC(=O)c2cc(-c3ccc(F)cc3OC(C)C)n[nH]2)cc(OC)c1OC
→ 6, -5, -4
- O=C(/C=C/[C@H]1O[C@@H](n2ccc(=O)[nH]c2=O)[C@H](O)[C@@H]1O)NCC1CCCO1 (stereo not given in full)
→ 6, 5, -17
- C[C@H]1CN([C@@H](C)CO)C(=O)CCCn2cc(nn2)CO[C@@H]1CN(C)S(=O)(=O)c1cccs1
→ 4, 9, -8&-9
- O=C(NCc1cccnc1)c1[nH]c(C(F)(F)F)nc1-c1ccccc1
→ 0, 1, -11
- CN(C(=O)CSc1nc2ccccc2o1)C1CCS(=O)(=O)C1 (stereo not given)
→ 2, 1, -9
- Cc1cc(C)c(CN2CCN(CCCn3ccc(NC(=O)OCc4ccccc4)nc3=O)CC2)c(C)c1
→ -3, -10, 3
- CC(=O)C1=CCC(c2ccc(Cl)cc2)N(S(=O)(=O)c2ccccc2)C1 (stereo not given)
→ -2, -6, -14
- O=C(O)c1cc(=O)[nH]c2ccccc12
→ -7, 2, -21
- COC1C(=O)CCC2(CO2)C1(O)C1(C)OC1CC=C(C)C (stereo not given)
→ 1, 4, -16
- CCN1C(=O)[C@H]2[C@@H](c3ccc(C(F)(F)F)cc3)N[C@]3(CCCN(CC4CCCCC4)C3=O)[C@H]2C1=O
→ -1, -1, 10
- COc1ccc(-c2csc(NC(=O)CSC(C)C(=O)Nc3cc(C)on3)n2)cc1OC (stereo not given)
→ 3, -7, -13
- Cn1c(N)c(C(=O)COC(=O)c2ccccc2C(=O)c2ccccc2)c(=O)n(C)c1=O
→ 0, -2, 2
- O=C(CCl)N1c2ccccc2Sc2ccc3ccccc3c21
→ 0, -1, -27
- CCCn1nc(C(=O)NCC2COc3ccccc3O2)c2ccccc2c1=O (stereo not given)
→ 2, -1, 15
- COc1ccc(-c2noc(CCCC(=O)N3CCN(c4cc(C)ccc4C)CC3)n2)cc1
→ 0, -8, -1
- Cc1nc(SCC(=O)N2CCNC2=O)c(C#N)c(C)c1C
→ -2, 0, -4
- CN(CC(=O)Nc1c(Cl)cccc1Cl)C(=O)CCC(=O)c1ccccc1
→ -2, 0, -7

# Some of these compounds in order of their number in MT1-MMP act inh, low to high.
Compound	MT1-MMP act inh
CCCCn1c(N)c(N(CCOC)C(=O)c2cc(S(=O)(=O)N3CCOCC3)ccc2Cl)c(=O)[nH]c1=O	-4
CCN1C(=O)[C@H]2[C@@H](c3ccc(C(F)(F)F)cc3)N[C@]3(CCCN(CC4CCCCC4)C3=O)[C@H]2C1=O	-1
CCC(=O)c1ccc(OCC(=O)OC(C)C(=O)Nc2c(C)n(C)n(-c3ccccc3)c2=O)cc1 (stereo not given)	1
CCOC(=O)C1=CCN(S(=O)(=O)c2ccc(C)cc2)C1c1cccc(F)c1 (stereo not given)	7

# (list continues)
# Every second line gives: MT1-MMP act inh, MT1-MMP act inh RFP, Yeast UUG start
- CC(=O)c1ccccc1NC(=O)COC(=O)CN1C(=O)C2CCCCC2C1=O (stereo not given)
→ -2, 1, 9
- Nc1nc(SCC(=O)Nc2ccc(Cl)c([N+](=O)[O-])c2)n[nH]1
→ 6, -3, -8
- Cn1nnnc1SCC(=O)Nc1ccc(C(=O)N2CCN(Cc3ccccc3F)CC2)cc1
→ 4, 7, 4
- COc1ccc(COC[B-](F)(F)F)cc1
→ 3, 8, -7
- CC(C(=O)Nc1ccc2c(c1)OCO2)N(C)CC(=O)Nc1ccc(Cl)cc1 (stereo not given)
→ 0, -3, -17
- CC(C)CCN1CCC[C@]2(N[C@H](c3ccc(C(F)(F)F)cc3)[C@@H]3C(=O)N(Cc4ccccc4)C(=O)[C@@H]32)C1=O
→ 7, -2, -16
- COc1ccc(CN2C(=O)C(CC(=O)NCCCN(C)C)CC(C(=O)N(C)C)=C2C)cc1 (stereo not given)
→ -3, 2, -16
- Cc1cc(C)n2nc(C(=O)OCC(=O)Nc3ccc4c(c3)OCCO4)nc2n1
→ 2, 2, -6
- CSc1ccc(CN(C)CC(=O)Nc2ccccc2C(=O)NC2CC2)cc1
→ -1, -1, 3
- Cc1ccc(S(=O)(=O)N2CCN(C(=O)c3cc4c(s3)CCCC4)CC2)c(C)c1
→ 3, -4, -8
- COc1ncnc2c1ncn2CCCN1CCN(C(=O)C2CC2)CC1
→ 2, 1, -24
- Cc1cc(N2CCN(C(=O)c3[nH]c(C(F)(F)F)nc3-c3ccccc3)CC2)c2ccccc2n1
→ -7, -10, -26
- CC(C)c1ccc(S(=O)(=O)N2CCN(C(=O)c3ccncc3)CC2)cc1
→ 1, -5, -22
- CC(C)(C)c1ccc(C(=O)Nc2cccc(S(=O)(=O)NC3=NCCC3)c2)cc1
→ -5, -19, -33
- Cc1cc2occ(CC(=O)N(C)CC(=O)Nc3ccccc3C(F)(F)F)c2cc1C
→ 2, 2, -10
- Cc1ccc(Nc2nc(N)nc(N)c2N=O)cc1C
→ -7, 2, -22
- CCN(CC(=O)Nc1ccc(NC(C)=O)cc1)C(=O)c1cc([N+](=O)[O-])ccc1Sc1ccc(Cl)cc1
→ -2, -11, -11
- Cc1ccc(OCCC(=O)Nc2cc(S(=O)(=O)N3CCOCC3)ccc2N2CCCC2)cc1
→ -1, 1, -2
- O=C(Cc1ccccc1F)Nc1cc(S(=O)(=O)N2CCOCC2)ccc1N1CCOCC1
→ -3, -1, -10
- O=C(COC(=O)CC1CCCCC1)Nc1c(Cl)cccc1Cl
→ 2, 1, -7
- Cn1nnnc1NN=Cc1ccccc1
→ -1, 2, -17
- COc1cc2c(cc1OC(C)=O)CCCCC2=O
→ 6, 1, -16
- CCC/C=C/c1ccc(CN2C(CC(C)C)C(=O)N(Cc3cn(Cc4ccco4)nn3)CCS2(=O)=O)cc1 (stereo not given)
→ -2, -1, 4
- CC(NC(=O)c1ccco1)C(=O)N1CCN(c2cccc(C(F)(F)F)c2)CC1 (stereo not given)
→ -1, -2, -9
- O=C(CCN1C(=O)NC2(CCCC2)C1=O)Nc1ccc(-c2nc3ccccc3s2)cc1
→ -4, 4, -30
- CC(=O)c1ccc(N2CCN(CC(=O)Nc3ccccc3C(=O)NC3CC3)CC2)c(F)c1
→ 1, -1, -23
- CC1=C(C(=O)N(C(C)C)C(C)C)CC(CC(=O)NCCCCc2ccccc2)C(=O)N1CCCN1CCCC1=O (stereo not given)
→ 2, 3, 4
- CCN(C(=O)CSc1nnc(-c2ccccc2F)n1N)c1c(N)n(Cc2ccccc2)c(=O)[nH]c1=O
→ 1, 3, -7
- CCC1(CC)NC(=O)N(CC(=O)OCC(=O)Nc2cc(OC)ccc2OC)C1=O
→ 0, -1, -14
- Cn1c(=O)c2cc(NC(=S)NC3CC3)ccc2n1Cc1ccc(F)cc1
→ 7, 1, -21
- Cc1c(C)c2ccc(OCC(=O)NCCc3c[nH]c4ccccc34)cc2oc1=O
→ 4, 2, -10
- CC(C)[C@@H](CO)NS(=O)(=O)c1ccc(Br)cc1F
→ 2, 0, -29
- CC(=O)c1ccccc1NS(=O)(=O)c1ccc2c(c1)CC(=O)N2
→ -4, 3, -18
- CC1(C)NC(=O)C(CCc2ccccc2)NC1=O (stereo not given)
→ 4, 8, -25
- CC(C)C(NC(=O)CCNC(=O)c1ccc(C(C)(C)C)cc1)c1nc2ccccc2[nH]1 (stereo not given)
→ 0, -1, -23
- CC(C)NC(=O)N(C)C[C@H]1OCc2cnnn2CCCC(=O)N([C@@H](C)CO)C[C@H]1C
→ 0, 2, -7&-8
- COc1ccccc1Nc1nnc(SC(C)C(=O)NC2CC2)s1 (stereo not given)
→ 9, 0, 2
- CCCC(=O)N1CCC1(C)C(=O)Nc1ccc2scnc2c1 (stereo not given)
→ -1, 3, -23
- CCCCCCN1C[C@H](n2cc(COC(=O)c3ccccc3)nn2)[C@@H](O)C[C@@H]1c1ccc(OC)cc1
→ 5, 4, -18
- COc1ccc(NC(=O)CSc2nc3[nH]c(=O)cc(O)c3s2)c(OC)c1
→ -4, 2, -9
- O=C1CC(c2ccccc2)C(=O)N2C(=O)CC(c3ccccc3)C(=O)N12 (stereo not given)
→ 2, 2, -12
- CC(=NNC(=O)c1ccncc1)c1ccc(Cl)c(Cl)c1
→ 1, 3, -12
- Cc1ccc(S(=O)(=O)N2C[C@H]3N(C(=O)OC(C)C)N(C(=O)OC(C)C)C[C@H](OC(=O)NCC4CCCCC4)[C@@]3(O)C2)cc1
→ -26, -18, -6
- CSCCC(NC(=O)COc1ccccc1)C(=O)N(C)Cc1cccc(F)c1 (stereo not given)
→ 0, -1, -2
- CCOc1ccc(NC(=O)c2cccc(-n3cccc3)c2)cc1S(=O)(=O)N1CCOCC1
→ -4, 0, -10
- CCCN(CC(=O)Nc1ccccc1OC)C(=O)Cn1[nH]c(=O)c2ccccc2c1=O
→ 3, 4, 6
- CCOc1ccccc1C(=O)NC(C(=O)N(C)c1c(N)n(Cc2ccccc2)c(=O)[nH]c1=O)C(C)C (stereo not given)
→ -1, 0, 13
- O=C(Nc1cccc(C(F)(F)F)c1)c1cccc2c(-c3cccnc3)coc12
→ -1, -11, 10
- O=C(C[C@H]1C/C=C\C[C@H](NC(=O)OCC2c3ccccc3-c3ccccc32)C(=O)OC[C@@H]2CCCN2C1=O)N[C@H](CO)Cc1ccccc1
→ -5, 0, -1
- Cc1cccnc1NC(=O)c1ccc(OCC2CCCO2)cc1 (stereo not given)
→ 0, 5, -15
- O=C(NNC(=O)c1ccc2ccccc2n1)c1ccc(O)cc1
→ 4, 0, -19

# Not all compounds are listed; count on the stated rates, not on these rows.
